Screens from PubChem.
Sfp inh – qHTS Assay for Inhibitors of Bacillus subtilis Sfp phosphopantetheinyl transferase (PPTase); 4'-phosphopantetheinyl transferase ffp (Bacillus subtilis), Q9F4F7; Biochemical Sfp PPTase activity, qHTS; Potency, µM, for the others: max response, negative = inhibition, usual class: inhibitors; actives 3.5% (n = 310,000); active = well fitted inhibition curve with a large enough effect; inconclusive = small, poorly fitted or top-dose-only effect, or another doubt; inactive = no such curve, though single readings can be large or run the other way;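 also: the enzyme is Sfp with the accession as filed and its product quenches rhodamine fluorescence; potency is read from the fitted curve at half-maximal effect; 0% = enzyme reaction without inhibitor and -100% = no enzyme wells; top concentration of the series not given in the record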
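Fluorescence-quenching assay with 15 nM Sfp, 5 uM rhodamine-CoA and 12.5 uM BHQ-2-labelled ybbR peptide in pH 7.6 Hepes/MgCl2 buffer. Enzyme was pre-incubated with compound for 15 min at room temperature. Rate was taken from the 30-min fluorescence change (525/598 nm).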
gsp antag – qHTS for Antagonists of gsp, the Etiologic Mutation Responsible for Fibrous Dysplasia/McCune-Albright Syndrome: qHTS. gsp-mutant cells, cAMP HTRF, 30 min; control for the full effect not named in the record. Potency, µM (top dose mostly 76.9 µM), for inactives: top-dose activity change, negative = inhibition, actives largely listed as inhibitors. actives 0.4% (n = 340,000). AID 624288, 2012; active = falling curve of any shape with a large fitted effect; inconclusive = falling curve, mostly with a smaller effect; inactive = flat or rising curve; cell line not stated here;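 also: intracellular cAMP measured with PDE inhibitor Ro 20-1724 present during compound exposure; potency is read from the fitted curve at half-maximal effect; % is scaled to controls: 0 for no effect and ±100 for the full control effect; nearly all actives have a fitted effect of over 65% in size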
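G418-selected cells were plated in DMEM/10% FBS for 16-24 h at 37C, then treated with compounds plus the PDE inhibitor […] (300 uM solution added) for 30 min at 37C. Intracellular cAMP was measured by HTRF after 30 min lysis at room temperature.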
CtBP-E1A inh – qHTS Assay for Inhibitors of the CtBP/E1A Interaction | CtBP / adenovirus E1A interaction (AlphaScreen) | AlphaScreen GST-E1A/His-CtBP binding, 1536-well; stronger effect = lower value; control for the full effect not named in the record | activity change, % (test concentration not listed) | actives 0.49% (n = 340,000) | AID 651724, 2012; in the data active means activity change below about -65%; inconclusive means about -30% to -65%; inactive means above about -30%; also: % is scaled to controls: 0 for no effect and ±100 for the full control effect; compound concentration not given in the record
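Steps: dispense buffer (Tris pH 8.0, NaCl 300 mM, TCEP 1 mM, BSA, Tween 20); add 5X protein mix (GST-E1A, His-CtBP, 125 nM each); pin 23 nL compound; 2 h at 37 °C, dark; add 5X beads (50 ug/mL); 1 h; read.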
gsp agonist – qHTS for Agonist of gsp, the Etiologic Mutation Responsible for Fibrous Dysplasia/McCune-Albright Syndrome: qHTS | actives 0.13% (n = 340,000) | gsp mutant cells, cAMP HTRF, 30 min; control for the full effect not named in the record | AID 624287, 2012 | Potency, µM (highest dose often 76.9 µM), inactives show top-dose activation (cAMP increase), most hits filed as activators; active = well fitted activation curve with a large enough effect; inconclusive = small, poorly fitted or top-dose-only effect, or another doubt; inactive = no such curve, though single readings can be large or run the other way; cell line not stated here;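 also: phosphodiesterase inhibitor Ro 20-1724 added with compounds to block cAMP breakdown; potency is read from the fitted curve at half-maximal effect; nearly all actives have a fitted effect of over 60% in size; about a fifth of the inactives were tested at one dose only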
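Cells in DMEM/10% FBS with G418 were pretreated with compounds in DMSO plus […] (300 uM stock) for 30 min at 37C. cAMP was measured by HTRF (cAMP-d2 plus anti-cAMP antibody-K) after 30 min at room temperature.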
Menin MLL FP FL – qHTS Assay for Inhibitors Targeting the Menin-MLL Interaction in MLL Related Leukemias: Competition With Fluorescein Labeled MLL-derived Peptide | FP activity change, % at 61.4 µM | Fluorescence polarization, fluorescein-MLL peptide displacement from menin | 290,000 tested, under 10 active; inconclusive = falling polarisation curve, or a change in total fluorescence; inactive = total fluorescence flat and polarisation flat or rising; no compound was filed as active; the % refers to the polarisation; negative = inhibition;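 also: % of control where 0% means no effect; inhibitors lower the polarisation; unlabelled MLL peptide was the positive control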
ClpP mod – qHTS Assay for Activators of ClpP; ATP-dependent Clp protease proteolytic subunit (Bacillus subtilis (strain 168)), P80244; actives 1.9% (n = 340,000); purified B. subtilis ClpP, FRET peptide cleavage, 20 min; AID 651965, 2013; Potency, µM (series often up to 57.5 µM), for inactives: top-dose activity change, negative = active; active = well fitted falling curve with a large enough effect; inconclusive = small, poorly fitted or top-dose-only effect; inactive = no such curve, though single readings can be large or run the other way; also: potency is read from the fitted curve at half-maximal effect; the source files actives as falling curves though it sought activators and does not explain the sign; nearly all actives have a fitted effect of over 65% in size; many hits overshoot -100%
Target sequence (P80244 whole entry, looked up): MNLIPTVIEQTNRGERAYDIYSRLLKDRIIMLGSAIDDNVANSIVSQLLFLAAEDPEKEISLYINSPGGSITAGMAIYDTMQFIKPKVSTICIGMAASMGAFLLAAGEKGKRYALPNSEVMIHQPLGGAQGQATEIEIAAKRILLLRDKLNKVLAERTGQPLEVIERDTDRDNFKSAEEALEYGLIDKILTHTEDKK
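FRET quenching reversal measured ClpP activation: 10 microg/mL B. subtilis ClpP at pH 8 with the FRET-FV decapeptide, read at 430 nm after 320 nm excitation. The 20-min minus 0-min signal was scaled between DMSO/no-enzyme wells and ADEP (5.8 microM final).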
TRPV1 PAM – HTS Assay for Compounds that Act as Potentiators of the Vanilloid Receptor 1; Transient receptor potential cation channel subfamily V member 1 (Homo sapiens), Q8NER1; TRPV1-expressing cells, Fluo-8 calcium influx, capsaicin EC20 potentiation; host cell line not named in the record; control for the full effect not named in the record; potentiation, % at 8.33 µM; actives 0.02% (n = 320,000); active means potentiation above 80%; inconclusive means 30% to 80%; inactive means below 30%; also: 0% is about no effect
Target sequence (Q8NER1 whole entry, looked up): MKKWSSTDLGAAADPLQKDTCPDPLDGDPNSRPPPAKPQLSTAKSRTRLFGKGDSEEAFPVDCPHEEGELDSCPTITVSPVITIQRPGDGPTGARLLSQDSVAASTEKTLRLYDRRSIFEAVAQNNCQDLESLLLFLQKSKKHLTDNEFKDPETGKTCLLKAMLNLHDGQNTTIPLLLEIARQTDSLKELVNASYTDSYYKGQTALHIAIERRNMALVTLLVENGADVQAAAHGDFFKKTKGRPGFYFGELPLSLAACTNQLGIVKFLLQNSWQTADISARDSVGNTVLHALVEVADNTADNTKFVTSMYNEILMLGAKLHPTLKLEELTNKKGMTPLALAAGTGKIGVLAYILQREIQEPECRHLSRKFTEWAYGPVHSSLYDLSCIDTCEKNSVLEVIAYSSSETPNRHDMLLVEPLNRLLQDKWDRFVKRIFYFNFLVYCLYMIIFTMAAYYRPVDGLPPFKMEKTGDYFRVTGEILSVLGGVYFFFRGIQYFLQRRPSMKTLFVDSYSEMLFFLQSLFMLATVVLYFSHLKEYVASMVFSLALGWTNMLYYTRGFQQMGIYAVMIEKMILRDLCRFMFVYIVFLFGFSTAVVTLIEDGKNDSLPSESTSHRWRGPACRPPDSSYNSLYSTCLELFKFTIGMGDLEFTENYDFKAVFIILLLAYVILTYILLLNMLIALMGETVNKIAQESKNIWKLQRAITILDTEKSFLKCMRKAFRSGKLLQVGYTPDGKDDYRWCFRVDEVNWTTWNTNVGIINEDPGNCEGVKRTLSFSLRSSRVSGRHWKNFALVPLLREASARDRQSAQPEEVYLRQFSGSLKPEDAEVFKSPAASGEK
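Cells expressing TRPV1 were dye-loaded with Fluo-8 and read kinetically: 10 s baseline, 3 min after compound (agonist portion), then 2 min after EC20 capsaicin (allosteric enhancer portion). Calcium-bound dye fluorescence at 480/520 nm.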
Active calls of the source: *; ? = inconclusive; nt = no result given; & = joins results of further samples; [ ] = another dose, or the depositor's remark. Not a hit list. Share with any hit: about 5.3%.

Structure,gsp antag,TRPV1 PAM,gsp agonist,Menin MLL FP FL,ClpP mod,CtBP-E1A inh,Sfp inh
O=S1(=O)CCN(C(CO)c2ccccc2)CC1 (centres undefined),6%,-3,-63%[inhibitor],-1.3,nt,8,21%
C=CCOC(=O)C1=C(C)N=C2SCCC(=O)N2C1c1cccs1 (centres undefined),9%,0,5%,5.5,-1.9%,-5,2%
S=C(NCCc1ccccc1)NC1CCCCCC1,-17%,24,-55%[inhibitor],2.5,-1.6%,-1,-1%
Cc1ccc(Nc2nc(-c3ccccc3)c(CC(=O)O)s2)cc1,-21%,?,13%[15.4 µM],11,nt,nt,0%
COc1cc(OC)cc(-c2cc(NC(C)=O)n[nH]2)c1,8%,-6,6%,0.5,-4.8%,-5,8%
C[C@H]1O[C@@H](O[C@H]2[C@@H](O)C[C@H](O[C@H]3[C@@H](O)C[C@H](O[C@H]4CC[C@@]5(C)[C@H](CC[C@@H]6[C@@H]5C[C@@H](O)[C@]5(C)[C@@H](C7=CC(=O)OC7)CC[C@]65O)C4)O[C@@H]3C)O[C@@H]2C)C[C@H](O)[C@@H]1O,-2%,0&-5,nt,-3.5&1.1&-1.4&2.5,0.0%,7,19%&12%&1%&19%
Cc1occc1C(=O)N(C)CC1CCCN(CCc2ccccc2F)C1 (centres undefined),-14%,14,-11%,nt,-3.9%,-5,3%
CCN(C(C)=O)c1nc(CSc2nnc(NC(C)C)s2)cs1,-3%,?,21%,1.7,-1.6%,0,-18%
COCCCNC(=O)Cn1nc(-c2cccc(OC)c2)ccc1=O,5%,6,2%,0.1,-1.9%,-7,19%
CCOC(=O)COc1ccc(C(=O)CC)cc1OC,-1%,11,13%,-0.4,-1.2%,nt,12%
CCCCC[C@@H]1C=C(C(=O)O)[C@H](c2cccc(C)c2)N1S(=O)(=O)c1ccc(C)cc1,-7%,nt,nt,nt,0.2%,-1,nt
CCCC(=O)N1CCN(c2nc3ccccc3s2)CC1,-6%,-15,-66%[inhibitor],3.7,-2.0%,nt,14%
CCOC(=O)c1cc(-c2ccccc2)nn1CC1CC(c2cccc([N+](=O)[O-])c2)=NO1 (centres undefined),-14%,nt,nt,nt,-4.9%,-2,nt
COc1cccc(C(=O)N2N=C(c3ccccn3)CC2(O)C(F)(F)F)c1 (centres undefined),-10%,nt,-68%[inhibitor],-3.0,-0.8%,?,-9%
CCOC(=O)C(Cc1ccccc1)NC(=O)CNC(C)=O (centres undefined),5%,6,-2%,-1.3,-0.7%,7,-3%
CCCc1nnc(NC(=O)CSc2nc3ccccc3[nH]2)s1,-7%,14,-6%[15.4 µM],-0.2,nt,-9,-14%
CCOC(=O)c1c(C)nc2ccc(Cl)cc2c1-c1ccccc1,-7%,-1,-15%[15.4 µM],3.8,-2.1%,5,1%
Cc1ccc(NC(=O)CN2C(=O)NC3(CCCC3)C2=O)nc1,10%,3,-6%[15.4 µM],nt,nt,8,nt
Cc1cc(Br)ccc1NC(=O)CNC(=O)Cc1ccc(S(=O)(=O)N2CCOCC2)s1,-5%,-9,10%,nt,2.5%,13,nt
Cc1nc2cc(NC(=O)Nc3ccc(N4CCOCC4)cc3)ccc2n1C,?,13,-53%,3.2,-0.8%,-3,8%
COC(=O)c1ccc(C(=O)OC)c(NC(=O)CN(c2ccc3c(c2)OCO3)S(C)(=O)=O)c1,-10%,2,18%,-0.3,1.9%,6,7%
CCc1ccc(C(C)NC(=O)C2(C)CC2(Br)Br)cc1 (centres undefined),-12%,10,4%,7.7,0.1%,3,7%
Cc1c(NC(=O)CCSc2ccc(Cl)cc2)c(=O)n(-c2ccccc2)n1C,5%,-15,?,4.5,0.1%,5,19%
CCSc1nc2ccccc2c(=O)n1C1CCOC(C)(C)C1 (centres undefined),-17%,-7,-7%,3.6,nt,8,-5%
CNC(=O)C1CN(C(=O)c2cccc(S(=O)(=O)N3CCc4ccccc43)c2)c2ccccc2O1 (centres undefined),nt,nt,-68%[inhibitor],nt,0.9%,-8,nt
FC(F)(F)c1cnc(C(c2ccccn2)c2ncn[nH]2)c(Cl)c1 (centres undefined),21%,?,2%[15.4 µM],-2.7,nt,?,26%
CCN(CC)S(=O)(=O)c1ccc(NC(=O)c2cnccn2)cc1,5%,-12,-1%,-0.3,-0.5%,nt,-2%
COc1ccc(C(NC(=O)C(C)C)c2c(O)ccc3ccccc23)cc1 (centres undefined),-9%,3,-7%,4.2,1.9%,0,7%
COc1ccc(-c2ccc(NS(=O)(=O)c3cccc([N+](=O)[O-])c3)cc2)nn1,3%,9,16%,nt,-1.1%,nt,3%
COc1ccc(OC)c(C(=O)c2ccccc2)c1,4%,-2,-1%,-0.6,0.0%,9,8%

Reprinted from the part before: five entries, then new ones.
Structure,gsp antag,TRPV1 PAM,gsp agonist,Menin MLL FP FL,ClpP mod,CtBP-E1A inh,Sfp inh
FC(F)(F)c1cnc(C(c2ccccn2)c2ncn[nH]2)c(Cl)c1 (centres undefined),21%,?,2%[15.4 µM],-2.7,nt,?,26%
CCN(CC)S(=O)(=O)c1ccc(NC(=O)c2cnccn2)cc1,5%,-12,-1%,-0.3,-0.5%,nt,-2%
COc1ccc(C(NC(=O)C(C)C)c2c(O)ccc3ccccc23)cc1 (centres undefined),-9%,3,-7%,4.2,1.9%,0,7%
COc1ccc(-c2ccc(NS(=O)(=O)c3cccc([N+](=O)[O-])c3)cc2)nn1,3%,9,16%,nt,-1.1%,nt,3%
COc1ccc(OC)c(C(=O)c2ccccc2)c1,4%,-2,-1%,-0.6,0.0%,9,8%
CC(=O)c1cc2c(=O)c3cc(C)ccc3oc2nc1C,3%,-26,-36%[inhibitor],4.7,-22%,2,12%
O=C(N/N=C\c1ccc(OC(=O)c2ccco2)cc1)c1ccc(Cl)cc1,-5%,0,-4%,3.0,2.9%,5,-2%
COc1ccc(OC)c(S(N)(=O)=O)c1,10%,4,-9%,-0.5,-1.0%,7,12%
CCn1c(=O)cc(OCC(=O)NCC2CCCO2)c2ccccc21 (centres undefined),2%,3,-36%[inhibitor],-0.9,-14%,-5,10%
CCOc1ccc(NC(=O)NCCN2CCN(c3cccc(C)c3C)CC2)cc1,13%,26,?,0.8,-1.2%&1.0%,3,8%
CCOc1ccc(CCNC(=O)CSCc2ccc(C)cc2)cc1OCC,1%,-2,-45%[inhibitor],4.1,-1.2%,-4,-13%
O=C(COC(=O)/C=C/c1cccc(Cl)c1)NC1CC1,1%,-11,?,nt,-2.6%,?,nt
Cc1csc(C2=C(O)CN(c3ccc4c(c3)OCCOCCOCCOCCO4)C2=N)n1,-1%,2,-37%[inhibitor],1.2,-6.5%,-11,9%
O=C(O)c1ccc(CSc2nc3ccccc3o2)cc1,-18%,0,0%,4.3,3.0%,3,15%
C=CCNC(=O)COc1coc(CN2CCN(Cc3ccccc3)CC2)cc1=O,-2%,17,-16%,nt,0.0%,2,10%
COc1ccc(Nc2nnc(SC(C(=O)Nc3ccc(OC)c(Cl)c3)c3ccccc3)s2)cc1 (centres undefined),-12%,2,-37%[inhibitor],1.1,-0.5%,5,-3%
COC(=O)c1cc(C(=O)c2cc(F)ccc2O)cn2c(=O)c3c(C)c(C)sc3nc12,-6%,-1,-1%,?,4.2%,-18,-11%
COc1ccc(/C=N/NC(=O)c2ccc(Cn3cc([N+](=O)[O-])cn3)o2)c(OC)c1C,-12%,-4,0%,1.0,-18%,-16,12%
O=C(COc1ccc(S(=O)(=O)N2CCOCC2)cc1)NCCN1CCOCC1,3%,13,-3%[15.4 µM],-1.1,nt,-3,9%
O=C(Oc1ccccc1)c1ccccc1,-14%,nt,2%,nt,nt,12,nt
Cc1ccc(/C=N/NC(=O)c2ccc(NC(=O)c3ccc(Cl)cc3)cc2)o1,9%,4,18%[15.4 µM],5.6,-7.2%,7,15%
Cc1cccc(NC(=S)N/N=C(\c2ccccc2)C(C)C)c1,-22%,-7,-10%[15.4 µM],1.6,nt,-8,-12%
Cc1nn(C)c(C)c1CN(C(=O)CCc1nnc(Cc2c[nH]c3ccccc23)o1)C(C)C,2%,-2,17%,0.5,nt,-2,18%
O=C(c1ccc(OC2CCN(Cc3ccc(F)cc3)CC2)cc1)N1CCCC1,?,-2,-22%,-3.9,-2.0%,nt,8%
CCOc1ccc(S(=O)(=O)N2CCOCC2)cc1NC(=O)CN1C(=O)NC(C)(c2ccccc2)C1=O (centres undefined),-2%,7,-5%,nt,1.3%,6,nt
Cc1ccccc1Oc1cc(-n2ncc(Cl)c(Cl)c2=O)ncn1,-37%,-12,16%,0.7,-2.5%,2,1%
CC(C)CN1C(=O)CC(Sc2ccccc2C(=O)O)C1=O (centres undefined),7%,0,4%,0.0,-0.2%,10,-5%
